VACV Venus inh: qHTS for Stage-Specific Inhibitors of Vaccinia Orthopoxvirus: Venus Reporter Primary qHTS. Potency, µM (series often up to 36.5 µM), for inactives: top-dose activity change, negative = inhibition, usual class: inhibitors. Vaccinia virus Venus reporter expression, fluorescence. 0.46% of 330,000 active; active means well fitted inhibition curve with a large enough effect; inconclusive means small, poorly fitted or top-dose-only effect; inactive means no such curve, though single readings can be large or run the other way; tested in A549 cells; further: nearly all actives have a fitted effect of over 30% in size; inactives centre near -10
VACV mCherry inh: qHTS for Stage-Specific Inhibitors of Vaccinia Orthopoxvirus: mCherry Reporter Primary qHTS; Potency, µM (series often up to 36.5 µM), for inactives: at the highest dose activity change, negative = inhibition, hits mostly inhibitors; Vaccinia virus mCherry reporter infection, fluorescence; about a quarter of the inactives have no number; 0.63% of 310,000 active; active = well fitted inhibition curve with a large enough effect; inconclusive = small, poorly fitted or top-dose-only effect; inactive = no such curve, though single readings can be large or run the other way; tested in A549 cells; further: nearly all actives have a fitted effect of over 35% in size; inactives centre near -10
* marks the source's active call; other numbers are inactive results; i = inactive; ? = inconclusive; . = not tested or not shown; [ ] = another dose, or the depositor's remark. On the % scale 0 is the no-effect control and ±100 the full control effect; potency means the concentration at half of the fitted maximal effect.

Value order – VACV mCherry inh | VACV Venus inh
#1 Cc1cc(C)n2nc(-c3ccc(Cl)cc3)nc2n1
  -19% | -7%
#2 O=C(/C=C/c1ccccc1)CC(O)(c1ccccc1)C(F)(F)C(F)F (stereo unspecified)
  -5% | -21%
#3 O=C1/C(=C/c2ccco2)CCC1C1CCCC1 (stereo unspecified)
  -7% | -7%
#4 C/C(CC(=O)Nc1ccc2c(c1)OCCO2)=N\NC(=O)COc1ccc(Cl)c(C)c1
  -27% | -18%
#5 O=C(NC1CCCCC1)C(c1ccc(C(F)(F)F)cc1)n1c(=O)c(-c2ccccc2)nc2ccccc21 (stereo unspecified)
  -27% | -6%
#6 Nc1nc2cc(S(=O)(=O)N3CCOCC3)ccc2o1
  -30% | 10%
#7 COC(=O)C1=C(C)Nc2ncnn2C1c1ccc(OC(=O)c2ccccc2)cc1 (stereo unspecified)
  i | 0%
#8 C=CCc1ccccc1OCC(=O)N/N=C/c1ccc(OC(C)=O)cc1OC(C)=O
  ? | ?
#9 O=C(C1CCN(S(=O)(=O)c2cccc3nonc23)CC1)N1CCN(c2cccc(Cl)c2)CC1
  -12% | -7%
#10 N#CCC(=O)Nc1ccc(C(=O)OCC(=O)Nc2ccc3ccccc3c2)cc1
  -24% | -2%
#11 NC(=S)N/N=C1/CCSc2ccc3ccccc3c21
  14µM* | ?
#12 O=C(Nc1ccc2nn(-c3ccccc3)nc2c1)c1ccco1
  -23% | -28%
#13 C=CCC(NCCCO)c1cccc(OC)c1OC (stereo unspecified)
  -11% | -4%
#14 O=C(O)CCC(=O)c1ccc2c(c1)CCCC2
  i | -5%
#15 NC(=O)C1(Nc2ccc(-c3ccccc3)cc2)CCCC1
  ? | -21%
#16 O=S(=O)(c1ccccc1)N1CCC(=NO)CC1
  -16% | -5%
#17 Cc1cc(C)n(CC(O)Cn2c3ccc(Cl)cc3c3cc(Cl)ccc32)c(=O)n1 (stereo unspecified)
  -23% | -16%
#18 CC(C)C(=O)O/N=C(\N)c1ccccn1
  -7% | 5%
#19 CCn1ncc(Cl)c1C(=O)Nc1cc([N+](=O)[O-])ccc1OC
  -8% | -5%
#20 CCc1ccccc1NC(=O)C1CCCN(c2nccc(C)n2)C1 (stereo unspecified)
  i | -10%
#21 CN(C)Cc1c(O)ccc2occ(C(O)c3ccccc3)c12 (stereo unspecified)
  . | -11%
#22 CCOc1ccc(C(=O)c2oc3ccccc3c2NC(=O)c2cc(-c3ccccc3)on2)cc1
  -5% | 3%
#23 O=C(NCCN1CCCCC1)c1ccc(Oc2cc(Cl)cc(Cl)c2)o1
  -29% | -2%
#24 Cc1noc(C)c1C(=O)OCC(=O)NC(=O)c1ccc(C(C)(C)C)cc1
  -8% | -5%
#25 O=C(OCc1nnc(-c2ccccc2)o1)C12CC3CC(CC(Br)(C3)C1)C2
  i | -17%
#26 O=c1c(-c2ccccc2)c(O)c2cccc3c2n1CCC3
  -16% | -16%
#27 CC1(c2nnc(-c3cccc(Cl)c3)o2)CC(c2ccc(F)cc2)=NO1 (stereo unspecified)
  -3% | -14%
#28 CC1(C)CC(=O)C2=C(C1)NC1=C(C(=O)c3ccccc31)C2c1ccccc1 (stereo unspecified)
  -21% | ?
#29 CCOc1ccc(OCc2cccc(C(=O)O)c2)cc1
  -20% | -10%
#30 O/N=C1\CCCC\C1=C/c1ccccc1
  -11% | -13%
#31 NC(c1ccccc1)c1csc(NC(=O)NCCc2ccccc2)n1 (stereo unspecified)
  -26% | ?
#32 Brc1cccc(-c2nc3c4ccccc4ccn3c2CC2CCCCC2)c1
  -6% | 4%
#33 CN(C)c1ccc(NS(=O)(=O)c2ccc(-c3csnn3)cc2)cc1
  ? | -12%
#34 Fc1cc(F)c(F)c(SCn2cc(Br)cn2)c1F
  -16% | -15%
#35 CN(CC(=O)NCc1ccccn1)S(=O)(=O)c1ccc(F)cc1
  -11% | -8%
#36 CC(=O)Nc1cc(C(=O)N2CC3(C)CC2CC(C)(C)C3)cc2ncn(CCc3ccccn3)c12 (stereo unspecified)
  -15% | -11%
#37 CCc1ccc(-c2nc3c(c(SCc4ccccc4F)n2)Cc2c(CO)cnc(C)c2O3)cc1
  -7% | -12%
#38 COP1(=O)C[C@@H](O)[C@@H](O)[C@@H](COCc2ccccc2)O1 (stereo partly specified)
  -13% | -1%
#39 O=C(N[C@@H](c1ccccc1)[C@@H]1C[C@H]1C(=O)O)OCc1ccccc1
  i | -4%
#40 Cc1ccc(Cl)cc1N1CCN(C(=O)c2ccc(CS(=O)(=O)c3ccc(Br)cc3)o2)CC1
  4% | -11%

Compound profiles (already shown). Order of values: VACV mCherry inh | VACV Venus inh
CCc1ccccc1NC(=O)C1CCCN(c2nccc(C)n2)C1 (stereo unspecified) in the list: i | -10%
Nc1nc2cc(S(=O)(=O)N3CCOCC3)ccc2o1 in the list: -30% | 10%
NC(=S)N/N=C1/CCSc2ccc3ccccc3c21 in the list: 14µM* | ?
N#CCC(=O)Nc1ccc(C(=O)OCC(=O)Nc2ccc3ccccc3c2)cc1 in the list: -24% | -2%
O=C1/C(=C/c2ccco2)CCC1C1CCCC1 (stereo unspecified) in the list: -7% | -7%

Other structures.
Value order – VACV mCherry inh | VACV Venus inh
#41 COc1cccc2sc3cc(NCC[C@@H]4CCCN4C)ccc3c(=O)c12
  -13% | ?
#42 COc1ccc(OCCN(C)Cc2c(O)ccc3ccccc23)cc1
  ? | 10%
#43 O=C(O)c1ccccc1SCc1ccc2c(c1)OCO2
  -24% | -21%
#44 CC(=O)N1C(=O)NC(c2ccccc2)=C([N+](=O)[O-])C1c1ccccc1 (stereo unspecified)
  i | -12%
#45 O=c1[nH]n(-c2ccccc2)c(=O)cc1Cl
  i | 7%
#46 O=C(NCc1ccccc1)c1cnc(-c2ccccn2)nc1C(F)(F)F
  -13% | -17%
#47 CCOc1ccccc1CNC(=O)Nc1cn(CC(C)C)c(=O)c2ccccc12
  2% | -1%
#48 O=C(Nc1ccc(Br)cc1)c1ccc(Br)c(S(=O)(=O)N2CCCCC2)c1
  -12% | -22%
#49 CN1/C(=C\P(=O)(N(C)C)N(C)C)C(C)(C)c2ccccc21
  41%[activator] | 144%[activator]
#50 O=C(N/C(=C/c1ccc(F)cc1)C(=O)N1CCOCC1)c1ccccc1
  -10% | -1%
#51 CCC(=O)Nc1nc2c(s1)COc1ccccc1-2
  -18% | -11%
#52 COc1ccc(NC(=O)CN(C)S(=O)(=O)c2ccc3c(c2)CCCN3C(C)=O)cc1
  -1% | -18%
#53 O=C(Oc1ccc(C(=S)N2CCOCC2)cc1)c1cccc(Cl)c1
  i | -14%
#54 COC(=O)C1=CN(c2ccc(N3CCOCC3)cc2)C(N)=C(C#N)C1c1cccc(OC)c1OC (stereo unspecified)
  -9% | -11%
#55 CN(C)c1ccc(C(=O)N/N=C/c2cc(Br)cc(Br)c2O)cc1
  -39% | -36%
#56 COCc1cc(Sc2ccc(Cl)cc2)nc(-c2ccccc2)n1
  -11% | -5%
#57 C=CCN1C=C(C(C)=O)C(=O)CC1
  5% | 6%
#58 Cc1ccc(CCNC(=O)c2ccc3nc(N4CCC(C)CC4)sc3c2)cc1
  i | -5%
#59 CCCn1nnnc1SCC(=O)c1ccc(NC(C)=O)cc1
  -16% | -10%
#60 O=C1NC(NS(=O)(=O)c2ccc(Cl)cc2)(C(F)(F)F)C(=O)N1CCc1ccccc1 (stereo unspecified)
  -8% | -11%
#61 CN(C)CCCNCCCCNC(=O)/C=N/O
  -12% | -6%
#62 CC(C)CNC(=O)CN(c1ccccc1)S(=O)(=O)c1ccccc1[N+](=O)[O-]
  -14% | -7%
#63 COC(=O)c1cccc(CN2C(=O)SC(Nc3ccccc3C)C2=O)c1 (stereo unspecified)
  -7% | 3%
#64 CCOC(=O)Cc1csc(NC(=O)Nc2ccc(OC(F)(F)F)cc2)n1
  -25% | -26%
#65 CCCn1c2ccccc2c2nnc(SC(CC)C(=O)Nc3cc(C)on3)nc21 (stereo unspecified)
  . | ?
#66 Cc1nn(Cc2ccc(Cl)cc2)c(C)c1NC(=O)CCCn1nc(C)c([N+](=O)[O-])c1C
  -14% | -25%
#67 Cc1ccc(C)c(S(=O)(=O)N2CC(=O)Nc3ccccc32)c1
  -12% | ?
#68 COc1ccc(NC(=O)CN2CCN(c3ccccc3C)CC2)cc1
  ? | -16%
#69 COc1ccc(CCNC(=O)COC(=O)c2ccc(OC)cc2OC)cc1
  i | -12%
#70 Cc1cc(C)c(S(=O)(=O)N2CCOC2CNC(=O)C(=O)NCCCn2ccnc2)c(C)c1 (stereo unspecified)
  -15% | -10%
#71 CC(C)Cn1c(SCc2cccc(F)c2)nc2ccsc2c1=O
  -2% | 3%
#72 COc1cccc(N2CC(NC(=O)c3cccs3)CC2=O)c1 (stereo unspecified)
  -10%[7.34 µM] | -5%[7.34 µM]
#73 Cc1ccc(S(=O)(=O)N2[C@@H](c3ccccc3)C(C(=O)O)=CC[C@H]2c2ccc(Cl)cc2)cc1
  i | -11%
#74 CCCS(=O)(=O)NC(=O)C1(C)CCN(C(=O)c2cccc(OC(F)(F)F)c2)C1 (stereo unspecified)
  37%[activator] | -5%
#75 Cc1c(Nc2ncnc3c2cnn3-c2ccccc2)c(=O)n(-c2ccccc2)n1C
  0% | -12%
#76 COC(=O)c1ccc(C2=NOC(C)(c3sc(-c4ccccc4)nc3C)C2)cc1 (stereo unspecified)
  -15% | -4%
#77 Cc1onc(-c2ccc(Cl)cc2)c1-c1ccnc(SCC(=O)Nc2ccc(C(C)C)cc2)n1
  i | -5%
#78 CCCS(=O)(=O)NC(=O)C1(C)CCN(C(=O)COc2ccccc2)C1 (stereo unspecified)
  32%[activator] | -1%
#79 CN(CCO)C(=O)c1nc[nH]c1C(=O)N1CCN(C(=O)OC(C)(C)C)CC1
  -8% | 0%
#80 O=S1(=O)CC(N2CCN(CCO)CC2)CN1C1CCCCC1 (stereo unspecified)
  7% | -3%
#81 CC(C)C(=O)N(Nc1nc2ccccc2s1)C(=O)C(C)C
  i | -15%
#82 CC(C)CN1CCCC(N2CCN(c3cccc(Cl)c3)CC2)C1 (stereo unspecified)
  ? | -3%
#83 CCCc1nc2ccc(Cl)cn2c1Cc1cccc(Cl)c1
  -10% | -11%
#84 CC(=NO)C1CCC2C3CCC4CC(=NO)CCC4(C)C3C(C)(O)CC12C (stereo unspecified)
  -6% | -13%
#85 CCOc1ccc(CCNC(=O)CSCc2nc(-c3cccc(C)c3)oc2C)cc1OCC
  ? | ?
#86 CCCOc1ccc(Cl)cc1/C=C1/C(=O)ON=C1C
  -12% | 1%
#87 Cc1ccc(/C=C(\C#N)C(=O)Nc2cccc(Br)c2)o1
  -2% | -3%
#88 Cc1ccc(S(=O)(=O)CCC(=O)Nc2nc3c(s2)CCCC3)cc1
  . | -22%
#89 Cc1ccc(CNC(=O)c2nnn(CC(=O)Nc3cccc(C)c3C)c2N)cc1
  -5% | -8%
#90 CCN(CC)CC(C)(C)COC(=O)c1oc2ccccc2c1C
  -9% | -11%
#91 COc1ccc(NC(=O)c2cc(S(=O)(=O)N3CCCC3)cn2C)cc1Cl
  i | -15%
#92 c1ccc(CCCCN2C(Nc3ccccc3)=NC[C@@H]2Cc2ccccc2)cc1
  -7% | -25%
#93 CC(=O)Nc1cccc(-c2ccnc3c2CC(C(=O)NCCc2ccccc2)O3)c1 (stereo unspecified)
  -12% | -29%
#94 CC(=O)N1CCC[C@H]1C(=O)NCC1Cc2cc(Cl)cc(-c3ccc4[nH]ccc4c3)c2O1 (stereo partly specified)
  -19% | -10%
#95 COc1cccc(C(=O)N(Cc2ccccc2)Cc2cc3cc4c(cc3[nH]c2=O)OCCO4)c1
  ? | ?
#96 O=C(Nc1nnc(-c2cccnc2)o1)c1cccc(Cl)c1
  -8% | -25%
#97 CC1Cc2ccccc2N1C(=O)CSc1nc2ccccc2o1 (stereo unspecified)
  i | -9%
#98 CN(C)C1C(=O)C(C(N)=O)=C(O)[C@@]2(O)C(=O)C3=C(O)c4c(O)cccc4[C@@](C)(O)C3CC12 (stereo partly specified)
  -16% | -17%
#99 O=C(NC(=S)Nn1cnnc1)c1ccccc1
  i | -11%
#100 Cc1nc2sc3c(c2c(=O)o1)CC(C)(C)OC3
  . | -8%

The list goes on, overlapping the part above by 3 compounds.
Value order – VACV mCherry inh | VACV Venus inh
#98 CN(C)C1C(=O)C(C(N)=O)=C(O)[C@@]2(O)C(=O)C3=C(O)c4c(O)cccc4[C@@](C)(O)C3CC12 (stereo partly specified)
  -16% | -17%
#99 O=C(NC(=S)Nn1cnnc1)c1ccccc1
  i | -11%
#100 Cc1nc2sc3c(c2c(=O)o1)CC(C)(C)OC3
  . | -8%
#101 C=CCNC(=S)NNC(=O)c1ccc(C)c(Cl)c1
  -6% | -12%
#102 COc1ccc(CNC(=O)COC(=O)c2c(C)nn(-c3ccccc3)c2C)cc1OC
  -18% | -12%
#103 O=C(c1ccc(=O)[nH]c1)N(Cc1cccs1)C1(C(=O)NC2CCCC2)CCCCC1
  -19% | -8%
#104 C[C@]12c3[nH]c4ccccc4c3CCN1C(=O)C(CC(=O)NCC13CC4CC(CC(C4)C1)C3)C[C@@H]2C(=O)N1CCOCC1 (stereo partly specified)
  -4% | ?
#105 Cc1ccc(C)c(CN2C(=O)N(c3cc(Cl)ccc3C)S(=O)(=O)c3ccccc32)c1
  -4% | 0%
#106 CC1(C)Oc2cc(N)c([N+](=O)[O-])cc2O1
  . | -15%
#107 O=C(NCc1ccccc1)C(=O)NCC(c1ccco1)S(=O)(=O)c1ccc(Cl)cc1 (stereo unspecified)
  -22% | -23%
#108 CC(C)S(=O)(=O)c1ccc(C(=O)Nc2ccc(F)cc2F)cn1
  -16% | -12%
#109 Cc1cc(C)c2nc(-c3ccccn3)cc(C(=O)n3cccn3)c2c1
  -9% | -7%

Compound activity: PubChem BioAssay, National Center for Advancing Translational Sciences (NCATS)
